BasE inh: BasE siderophore biosynthesis inhibition; purified BasE, fluorescence polarization binding displacement; inhibition, % (test concentration not listed); 84,000 compounds, 0.1% hits; AID 485350;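 active = both replicates above 25% with normal brightness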;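 also: 0% = negative plate control signal and 100% = positive plate control signal; stock transfer was 100 nL into about 30 µL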
KSHV LANA nucl: LANA-nucleosome interaction inhibition; AID 720717; 51,000 compounds, 0.3% hits; z-score (no concentration beside the values); FITC-LANA1-23 / chicken nucleosome fluorescence polarization; active compounds read low;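 active = both repeat wells score below -2 in polarization z-score versus plate sample wells, excluding overly bright wells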;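 also: 100 nL library stock added to about 30 µL; numbers are from one replicate; some results filed as inactive read as strong as hits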
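test system = FITC-LANA peptide and chicken nucleosomes | amount = 240 nM purified chicken nucleosomes (480 nM peptide binding sites), final | reagent = 50 nM FITC-LANA1-23 probe | medium = TEN-BT buffer, pH 7.5 | doses = single compound addition by pin transfer, 100 nL per well | timing = 10–45 min, room temperature | detection = fluorescence polarization | repeats = duplicate plates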
An asterisk follows results filed as active; / = no result given; & = joins results of further samples.

SMILES	BasE inh	KSHV LANA nucl
O=C(c1cccc(C(F)(F)F)c1)N1CCN(c2ccc(N3CCCCCC3)nn2)CC1	-2.7	1.9
CC(=O)N1N=C(c2cccc(I)c2)OC1c1ccncc1 (configuration not stated)	59*	-0.15
CCC1SC(C)C/C(=N\O)C1C (configuration not stated)	-0.2	-0.48
COc1cc(/C=N/NC(=O)CCN2CCCCC2)cc(OC)c1OC	1.2	/
O=C(COc1ncnc2ccccc12)N1N=C2/C(=C/c3ccco3)CCCC2C1c1ccco1 (configuration not stated)	0.3	/
O=C(Cc1csc(-c2ccccc2)n1)N1CCN(C(=O)C2CCCO2)CC1 (configuration not stated)	-0.1	/
CN(C)/C=C1/C(=O)Nc2ccccc21	3.5	-0.32
O=C(O)CC(=O)Oc1ccc(F)cc1	/	0.22
CC(Sc1nnc(C(F)(F)F)n1C)C(=O)Nc1ccc(N2CCOCC2)cc1 (configuration not stated)	0.0	/
O=C(Cc1cccs1)Nn1c(Cc2cccs2)nc2ccccc2c1=O	-2.4	-0.36
NCC(=O)CCC(=O)O	-0.3	-0.15&-0.51
CCc1ccc(NC(=O)c2cc3c(=O)n(Cc4ccco4)ccc3nc2C)cc1	0.5	-1.2
CC(=O)NCCC(=O)N1CCN(c2cccc(C)c2C)CC1	1.8	/
Nn1c(SCCC(=O)O)nnc1-c1ccccc1	1.2	-1.7
O=C(O)CC1C(=O)OCN1C(=O)OCc1ccccc1 (configuration not stated)	3.3	/
CCOC(=O)c1cnn(-c2ccccc2)c1NC(=O)c1ccccc1F	2.2	/
O=C(CC(=O)Nc1ccccc1Cl)Nc1ccccc1Cl	/	0.01
CC(=O)Nc1ccc(S(=O)(=O)N2CCN(C(=O)N3CCCC3)CC2)cc1	-1.9	-0.81
c1ccc(N2CCN(c3ncnc4c3oc3ccccc34)CC2)cc1	2.0	-1
O=C1NC(=Nc2ccccc2)CS1	-0.3	/
CN(C)c1ccc(/C=N/NC(=O)NC23CC4CC(CC(C4)C2)C3)cc1	-1.1	-0.45
CCc1ccc(-n2nc3ccc(NC(=O)c4ccccc4Br)cc3n2)cc1	2.4	/
OCCN1CCN(CCc2ccccc2)CC1	-1.3	-0.035
CSc1sc(=S)sc1SCCC#N	0.0	0.45
N#CC(C#N)=Cc1cccn1S(=O)(=O)c1ccc(F)cc1F	-3.7	1.5

An excerpt from above in order of the KSHV LANA nucl value, falling.
SMILES	KSHV LANA nucl
N#CC(C#N)=Cc1cccn1S(=O)(=O)c1ccc(F)cc1F	1.5
O=C(CC(=O)Nc1ccccc1Cl)Nc1ccccc1Cl	0.01
CCC1SC(C)C/C(=N\O)C1C (configuration not stated)	-0.48

Grouped by structure, the compounds so far containing a furan ring, fused or not (3)
SMILES	BasE inh	KSHV LANA nucl
O=C(COc1ncnc2ccccc12)N1N=C2/C(=C/c3ccco3)CCCC2C1c1ccco1 (configuration not stated)	0.3	/
CCc1ccc(NC(=O)c2cc3c(=O)n(Cc4ccco4)ccc3nc2C)cc1	0.5	-1.2
c1ccc(N2CCN(c3ncnc4c3oc3ccccc34)CC2)cc1	2.0	-1

(further entries)
SMILES	BasE inh	KSHV LANA nucl
Cc1cc2c(cc1NC(=O)CCc1ccccc1)n(C)c(=O)n2C	0.7	0.63
CC(=O)NC(NC(C)=O)C(C)(C)Cc1ccccc1	-1.2	-0.65
CCSc1nnc2c(n1)OC(/C=C/c1ccco1)N(C(C)=O)c1ccccc1-2 (configuration not stated)	0.0	0.23
CN(CC(=O)O)S(=O)(=O)/C=C/c1ccccc1	1.9	/
O=C(CN1C(=O)c2cccnc2Oc2ccc(Cl)cc21)NC1CCCCCC1	2.5	-0.83
Cn1cc(SCC(=O)Nc2ccc(F)cc2)c2ccccc21	0.8	-0.22
O=C(Cc1csc(N2CCOCC2)n1)N/N=C1\CCCc2ccccc21	1.1	/
COc1ccc(NC(=O)COC(=O)c2oc3ccc(Br)cc3c2C)cc1OC	3.0	/
Cc1nnsc1C(=O)N(C)c1ccccc1	-1.3	0.036
CCCC(=O)N(Cc1ccccn1)c1nc2ccccc2s1	-7.0	0.1
CCOC(=O)c1oc2ccccc2c1COC(=O)CNC(=O)c1ccc2c(c1)OCO2	-0.9	/
CCOC(=O)N1CCC(n2ccc3nc(SC)ncc3c2=O)CC1	-2.4	0.31
COc1cc2c(cc1OC)C1CCCN1C(C)(C)C2 (configuration not stated)	-1.3	-0.21
CN(C)C(=O)C1CCCN1 (configuration not stated)	1.0	/
COc1ccc(C)cc1S(=O)(=O)NCC(c1ccco1)N1CCc2ccccc2C1 (configuration not stated)	1.4	-0.69
CC(C)NC(=O)c1cccnc1Nc1cccc(C(F)(F)F)c1	-0.8	/
Cc1cc(C)n(CCCNC(=O)Cn2cnc3ccccc3c2=O)n1	-3.5	/
O=C(C1CCN(Cc2cnn(-c3ccccc3)c2-n2cccc2)CC1)N1CCN(c2ccccc2)CC1	-1.0	-0.57
Cn1c(=S)[nH]c2c(c1=O)C1(CCCC1)Cc1ccccc1-2	1.8	0.3
CCN(CC)Cc1c(O)ccc2cc(-c3ccc(OC)c(OC)c3)c(=O)oc12	0.7	-0.49
CC(C)CN(CC(C)C)C(=O)CSc1nnc(-c2cccc(Cl)c2)n1N	-2.2	/
Cc1cc2cc(CCNS(=O)(=O)c3ccccc3)c(=O)[nH]c2cc1C	-3.2	0.16
O=C(NCC(F)(F)C(F)F)c1ccncc1	1.7	0.05
Cn1c(=O)c2cc3c(=O)n(C)c(=O)c3cc2c1=O	-1.8	0.14
CCCCNC(=O)N1CCCCC1	1.2	0.2
Going on with the list:
SMILES	BasE inh	KSHV LANA nucl
O=C(O)c1cc2ccc3c(c2oc1=O)CN(c1ccc(Cl)cc1)CO3	-1.4	-0.25
Cc1c(C(=O)Nc2ccccc2)cc(-c2ccccc2)n1-c1ccccc1	1.4	/
Cc1ccc(S(=O)(=O)c2ccc(C)cc2)cc1	0.2	/
COc1ccc2c(=O)c(-c3cc4ccccc4o3)coc2c1	-0.5	-0.23
Cc1ccc(-n2c(CCC(=O)OCC(=O)NC3CCS(=O)(=O)C3)nc3ccccc3c2=O)cc1 (configuration not stated)	-0.4	/
Cc1ccc(C2=NN(C(=O)COC(=O)[C@H](Cc3ccccc3)N3C(=O)c4ccccc4C3=O)C(c3ccco3)C2)cc1 (some centres not stated)	-0.1	/
Cc1c(C=Nc2ccc(Cl)cc2)c(O)n(C)c(=O)c1C#N	0.0	0.27
COc1ccc2c(C)cc(=O)[nH]c2c1	0.8	-0.23
CCc1cccc(C)c1NC(=O)CN(C)C1=NS(=O)(=O)c2ccccc21	0.5	/
Cn1c(C(=O)N2CCC(C(=O)NCc3ccccc3Cl)CC2)cc2oc3ccccc3c21	2.4	-1.6
Cc1cc(NC(=O)c2sccc2C)n(CCOC(=O)c2sccc2C)n1	1.9	/
Cc1cccc(-c2noc(-c3ccccc3C(=O)NCc3cccnc3)n2)c1	-3.1	-0.37
Cc1ccc(NC(=O)C(C#N)Cc2ccncc2)cc1C (configuration not stated)	-0.2	0.28
NC1(CN2CCCCC2)CCCCC1	-0.5	0.19
CC(C)NCC(O)Cn1c2c(c3ccccc31)CCc1c-2cnn1-c1ccccc1 (configuration not stated)	1.0	0.27
O=C1C(=Nc2ccc(F)cc2)c2ccccc2N1c1ccccc1	/	-0.45
CS(=O)(=O)Nc1ccccc1C(=O)NCCN1CCOCC1	4.1	-0.33
Cc1cc(F)ccc1S(=O)(=O)Nc1ccc2oc3c(c2c1)C(=O)CC(C)(C)C3	-1.1	2.1
OC1CCN(Cc2cccc3ccccc23)CC1	1.1	-0.85
CCCNC(=O)[C@H]1O[C@@H]1C(=O)N[C@H](C(=O)N1CCC[C@H]1C(=O)OC)C(C)CC (some centres not stated)	-0.5	-0.079
Cc1nc2c(Cl)cc(Cl)cc2[nH]1	-5.1	-0.48
Cc1ccc(C(=O)NC(C)c2ccc(S(N)(=O)=O)cc2)s1 (configuration not stated)	1.5	/
Cc1cc(C)cc(C(=O)N(C(C)C)C(C)C)c1	0.3	0.26
CC(C)Cn1cnc2c(c(-c3ccccc3)c(-c3ccccc3)n2Cc2ccco2)c1=N	-2.5	-1.3
Cc1ccc(NC(N)=O)cc1	1.0	/
Additional records
SMILES	BasE inh	KSHV LANA nucl
Cc1ccc(/C=N\N2CCN(c3ccccc3)CC2)cc1	4.7	-0.33
CC(=O)Oc1ccc(OC(C)=O)cc1	-1.6	/
COCCn1c(O)c(C=NCCn2c(C)nc3ccccc32)c(=O)[nH]c1=S	-7.4	/
CCC(C(=O)NCc1ccco1)n1nc(C)c2sc3ccccc3c2c1=O (configuration not stated)	1.1	-0.49
CCOC(=O)c1c(C)n(CCO)c2ccc(O)cc12	3.6	0.46
Cc1ccc(NC(=O)c2sc3nc(N)c(C#N)cc3c2N)cc1	3.5	-2.2
O=C(Cc1cccs1)NC1C(=O)N2C(C(=O)[O-])=C(C[n+]3ccccc3)CSC12 (configuration not stated)	-0.9	-0.57
CC(C)=NNC(=O)CNc1ccccc1Cl	0.9	0.3
Oc1ccc(C=Nc2cccnc2)cc1	4.9	-0.75
COc1cc(CNCC2CCCO2)cc(Cl)c1OCC(N)=O (configuration not stated)	2.0	-1.4
CCN(CC)S(=O)(=O)c1ccc2[nH]c(=O)c3ccccc3c2c1	0.7	-1.2
N=Cc1c(C(F)(F)F)[nH]n(-c2nc3ccccc3s2)c1=O	-4.3	/
CCCC(=O)NNc1ncc(C(=O)OCC)c(C(F)(F)F)n1	3.5	-0.1
CCCCCC(=O)NC1CCN(Cc2ccccc2)CC1	2.1	0.41
COc1cccc(-c2cc(C(=O)NC3CCC(C)CC3)[nH]n2)c1 (configuration not stated)	-2.1	-1.2
c1ccc2c(c1)sc1nnc(Sc3ncnc4sc5c(c34)CCCC5)n12	1.0	/
CCOc1ccc(/C=C/C(=O)NCC(C)C)cc1OCC	-5.4	1.2
N#Cc1cccnc1Cl	1.2	0.46
CCC1Oc2ccc(C)cc2N(CC(=O)N(Cc2ccc(F)cc2)CC2CCCO2)C1=O (configuration not stated)	-0.1	-1.2
CC(=O)N1CC=C(c2ccc(O)cc2)CC1	0.2	/
O=C1C=CC(=C(c2ccc(O)cc2)c2ccc(O)cc2)C=C1	-1.3	-0.32
OCCN1CCN(c2ncnc3c2cnn3-c2ccc(Cl)c(Cl)c2)CC1	-1.5	0.11
CN1CCC(N(C)C(=O)NC2CCCCC2)CC1	4.3	0.075
Cc1cc(SCc2ccc(C(F)(F)F)cc2)nc(=O)[nH]1	0.8	2.2
Cc1cc2[nH][nH]c(=O)c2c(C)n1	-1.4	0.13
(next part)
SMILES	BasE inh	KSHV LANA nucl
CCOc1ncccc1C(=O)N1CCCSC1=Nc1ccccc1OC	0.3	/
N#CC(C(=Nc1ccccc1)SCc1ccc(Cl)cc1)c1nc2ccccc2[nH]1 (configuration not stated)	-1.4	/
N=C(N)SCP(=O)(c1ccccc1)c1ccccc1	0.5	-0.35
CC1CC2C3CCC4=CC(=O)C=CC4(C)[C@@]3(Cl)C(O)CC2(C)C1(O)C(=O)CO (some centres not stated)	/	-0.081
CC1(C)CC(=O)c2cnc(NC(=O)CSCC(=O)Nc3cccc(F)c3)nc2C1	0.7	-0.87
CNC(=O)NC(=O)CN1C(=O)c2ccccc2C1=O	-0.9	/
O=C(COC(=O)c1ccccn1)Nc1ccccc1	0.1	-1.2
O=C(CNCc1ccc(F)cc1)N1CCC2(CC1)OCCO2	-1.7	0.57
CN(CCC#N)c1ccc(/C=C2/N=C(c3ccccc3)OC2=O)cc1	/	2.9
Cc1cc(C(=O)OCc2cc(=O)oc3cc(C)c(Cl)cc23)c(C)o1	-1.3	/
CN(C)c1nc(-c2ccc(Cl)cc2)[nH]c(=O)n1	-4.1	/
O=C(OC(C(=O)c1ccccc1)c1ccccc1)c1ccccn1 (configuration not stated)	-1.4	/
CC(Oc1ccccc1)C(=O)n1c(=O)oc2ccccc21 (configuration not stated)	1.8	0.29
O=C(NC(c1ccccc1)c1nnc(-c2ccccc2)o1)c1cccc(Cl)c1 (configuration not stated)	2.0	0.45
Cc1onc(-c2ccccc2)c1NC(=O)N(Cc1ccccc1)C(C)C	0.6	/
CN(C)c1ncc2c(=O)n(CC3CCCO3)ccc2n1 (configuration not stated)	-1.5	0.16
CCOC(=O)c1cc(-c2ccccc2)sc1NC(=S)Nn1cnnc1	2.5	-0.1
CNC(=O)OCc1cccc(COC(=O)NC)n1	-0.7	-0.072
CCn1c(SCC#N)nnc1-c1cccc(C)c1	4.8	-0.33
C=CCN=C1SC(C)C(=O)N1S(=O)(=O)c1ccccc1 (configuration not stated)	0.0	0.45
Cc1ccc(OC(=O)c2cccc(S(=O)(=O)N3CCOCC3)c2)c(-n2nc3ccccc3n2)c1	3.5	-2
COC(=O)CNC(=O)c1cc(-c2ccc3c(c2)OCO3)nc2c(C)c(Cl)ccc12	2.8	-0.74
CC(=O)N/C(=C/c1ccccc1)C(=O)N1CCCCC1	-3.2	0.68
O=C1SC(Nc2ccccc2Br)C(=O)N1c1ccccc1 (configuration not stated)	0.1	0.21
CN(C)CC(O)C1CCOC(C)(C)C1 (configuration not stated)	2.9	-0.67
NC(=NCCCCCCN=C(N)/N=C(\N)Nc1ccc(Cl)cc1)/N=C(\N)Nc1ccc(Cl)cc1	-26&-2.4	0.38&1.2&-0.43

Five entries from above in a different format.
canonical_smiles | BasE inh | KSHV LANA nucl
N=C(N)SCP(=O)(c1ccccc1)c1ccccc1 | 0.5 | -0.35
CC1CC2C3CCC4=CC(=O)C=CC4(C)[C@@]3(Cl)C(O)CC2(C)C1(O)C(=O)CO (some centres not stated) | / | -0.081
CC1(C)CC(=O)c2cnc(NC(=O)CSCC(=O)Nc3cccc(F)c3)nc2C1 | 0.7 | -0.87
CNC(=O)NC(=O)CN1C(=O)c2ccccc2C1=O | -0.9 | /
O=C(COC(=O)c1ccccn1)Nc1ccccc1 | 0.1 | -1.2

This is a subset, so the mix of outcomes need not match the whole.
